Rango dissoc inh – prevents RanGTP from dissociating the Rango-importin beta complex | O95149+P62826 | Biochemical FRET Rango-importin beta, RanGTP-induced dissociation | Potency, µM (titrated, usually from 46.1 µM), inactives show top-dose activity change, negative = inhibition | 0.071% of 340,000 active; active means falling FRET ratio curve, often poorly fitted, with flat reads before Ran was added; inconclusive means other falling curves, or compound fluorescence or quenching; inactive means flat or rising ratio curve;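 note: potency is the fitted concentration of half-maximal effect; % of control where 0% means no effect; nearly all actives have a fitted effect of over 45% in size; -100% = wells without RanGTP and RCC1; the record marks most hits as doubtful in a second field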
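Rango/importin beta premix (0.1/0.25 uM final), PBS + 1 mM DTT + 0.02% Tween-20 + 0.1% BSA; cpd 5 min RT; FRET pre-read; + RanGTP-RCC1 (0.6 uM Ran, 2 mM GTP, 0.2 uM RCC1); 45 min RT; FRET post-read, ex 430, em 486/530 nm.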
GLA inh pH 4.5 – inhibitors of human alpha-galactosidase A at pH 4.5. P06280. purified enzyme, 4-MU-alpha-Gal fluorescence, pH 4.5. 230,000 tested, under 10 active. activity change, negative = inhibition, % at 105 µM. AID 1467; inconclusive = small, poorly fitted or top-dose-only inhibition, or a rising curve; inactive = flat fitted curve, though single readings scatter; no compound was filed as active;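 note: 0% = full activity with enzyme and -100% = basal without enzyme; dose as in the result columns while the protocol names 77 µM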
miR-21 reporter – raises the signal of a miR-21 reporter. HeLa miR-21 FLuc reporter, luciferase, 48 h. 340,000 tested, under 10 active. Potency, µM (top dose mostly 38.3 µM), for the others: at the highest dose reporter change, positive = more light; active = well fitted rising curve with a large enough effect; inconclusive = small, poorly fitted or top-dose-only effect; inactive = no such curve, though single readings can be large or run the other way;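 note: % of control where 0% means no effect; miR-21 action dims this reporter so a rising signal means less miR-21 action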
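Compounds were titrated across several concentrations (up to approximately 40 uM) and incubated 48 hours with HeLa miR-21-FLuc reporter cells (miR-21 target sequence downstream of FLuc, endogenous miR-21). Readout was firefly luciferase luminescence after lytic detection reagent.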
Rango complex inh – Rango-importin beta binding inhibition. 0.031% of 340,000 active. Rango CFP/YFP FRET sensor + importin beta, 45 min. Potency, µM (top dose mostly 92.2 µM), inactives show at the top dose inhibition of complex formation. AID 540263. Q14974; active = rising FRET ratio curve, often small or poorly fitted; inconclusive = mostly compound fluorescence or quenching in the first reads; inactive = flat curves in all reads;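 note: potency is the fitted concentration of half-maximal effect; 0% = DMSO wells and 100% = buffer wells lacking importin beta; nearly all actives have a fitted effect of over 15% in size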
Target sequence (Q14974 whole entry, looked up): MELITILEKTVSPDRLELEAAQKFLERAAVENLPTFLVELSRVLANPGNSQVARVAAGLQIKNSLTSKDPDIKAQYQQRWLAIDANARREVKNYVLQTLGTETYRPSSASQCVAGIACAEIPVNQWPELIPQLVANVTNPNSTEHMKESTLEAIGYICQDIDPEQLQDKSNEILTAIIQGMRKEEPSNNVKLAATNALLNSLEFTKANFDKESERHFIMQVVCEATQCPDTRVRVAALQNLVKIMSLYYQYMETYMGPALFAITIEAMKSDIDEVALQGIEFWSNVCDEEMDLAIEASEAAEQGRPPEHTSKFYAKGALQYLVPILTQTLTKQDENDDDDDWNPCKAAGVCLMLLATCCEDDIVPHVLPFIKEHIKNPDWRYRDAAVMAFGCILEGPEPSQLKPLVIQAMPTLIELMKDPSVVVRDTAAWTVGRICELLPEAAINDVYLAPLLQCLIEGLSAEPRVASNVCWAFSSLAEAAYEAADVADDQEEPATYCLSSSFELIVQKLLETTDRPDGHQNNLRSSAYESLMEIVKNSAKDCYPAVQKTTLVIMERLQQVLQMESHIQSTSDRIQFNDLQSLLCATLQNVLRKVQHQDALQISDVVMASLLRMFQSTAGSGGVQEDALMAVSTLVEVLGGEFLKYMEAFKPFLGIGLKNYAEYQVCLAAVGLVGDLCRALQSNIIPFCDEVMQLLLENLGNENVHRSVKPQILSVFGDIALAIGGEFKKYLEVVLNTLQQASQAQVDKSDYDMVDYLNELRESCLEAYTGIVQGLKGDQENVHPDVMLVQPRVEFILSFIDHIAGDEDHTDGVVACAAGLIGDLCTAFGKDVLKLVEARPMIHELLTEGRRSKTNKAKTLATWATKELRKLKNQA
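Inhibition scored from the CFP 486 nm/YFP 530 nm FRET ratio 45 min after adding 0.125 microM importin beta to 50 nM Rango biosensor preincubated 5 min with compound (room temperature, PBS with DTT, Tween-20, BSA). No-importin wells as positive control.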
* marks the source's active call; other numbers are inactive results; ? = inconclusive; nt = no result given; & = joins results of further samples. This is a subset; the hit share may differ from the screen's.

SMILES	Rango dissoc inh	GLA inh pH 4.5	miR-21 reporter	Rango complex inh
O=C(c1cccc(F)c1)N1CCC(N2CCOCC2)CC1	3.0%	5.5	-7.5%	-3.1%
COc1ccc(C2N(S(=O)(=O)c3ccc(C)cc3)CCN2S(=O)(=O)c2ccc(C)cc2)cc1	0.0%	-2.1	-0.2%	-3.2%
CCOC(=O)c1cccc(N2CC3CNC(=O)C2(C(=O)OC)N3C)c1 (stereo not drawn)	2.8%	nt	nt	0.7%
O=C(NN1CCOCC1)c1sc2cccc(F)c2c1Cl	-15.6%	2.6	-1.4%	-2.0%
COc1ccc2c(-c3ccccc3)cc(SCC(=O)NC3CCS(=O)(=O)C3)nc2c1 (stereo not drawn)	0.0%	0.6	-1.2%	-0.1%
O=S1(=O)CCO[C@H]2Cc3ccccc3[C@H]2N1Cc1ccc(F)cc1	0.1%	nt	1.6%	2.2%
COc1ccc(C(F)(F)F)cc1NC(=O)c1nc2nc(C)cc(C(F)F)n2n1	-2.7%	2.2	-0.8%	-2.4%
C=CC[C@@H](CC(=O)OC(C)(C)C)C(=O)OC[C@H]1CCCN1C(=O)[C@@H](CC=C)CC(=O)NCCO	9.0%	nt	nt	-2.8%
O=C(COC(=O)c1cccc2ccccc12)NCCCc1ccccc1	1.4%	-7.6	-8.9%	8.8%
CCOC(=O)c1ccc(-c2n[nH]c(=O)c3ccccc23)cc1	-4.5%	-7.2	-5.9%	4.3%
COc1ccc(/C=N/NC(=O)C2COc3ccccc3O2)cc1OC (stereo not drawn)	-12.8%	-4.6	-4.1%	-4.5%
CCN(Cc1nc2ccccc2c(=O)[nH]1)C(=O)c1ccc(C)c(NC(=O)c2ccco2)c1	3.0%	nt	nt	?
COC(=O)Cc1c(C)c2ccc(OC3CCCCC3=O)cc2oc1=O (stereo not drawn)	0.0%	nt	-22.0%	-3.8%
Cc1cccn2c(=O)nc(SCC(=O)NCc3ccccc3Cl)nc12	-10.5%	nt	nt	0.1%
Cc1c(Cl)cccc1NC(=O)C1CCCCC1	nt	-1.8	1.3%	nt
COc1ccc(CCN(C)C(=O)/C=C/c2c(Cl)nc3ccccn23)cc1OC	16.8%	1.1	-17.9%	-3.5%
COC(=O)CSc1ccc2nnc(-c3ccc(F)cc3)n2n1	3.9%	1.6	-0.2%	0.2%
COc1ccc(CCNC(=O)c2nn(C)c3c2CS(=O)(=O)c2ccccc2-3)cc1OC	?	nt	-1.6%	?
CCC(CCCO)CCC[C@H](C)CCC1OCCO1 (stereo partly drawn)	-1.8%	nt	nt	-1.0%
NC(=O)c1ccsc1NC(=O)COC(=O)C1CC2CCCC(C1)C2=O (stereo not drawn)	6.6%	-12.6	0.3%	2.8%
Cc1c(C(=O)N2CCN(c3ccccn3)CC2)oc2ccccc12	-19.3%	4.3	2.0%	-1.3%
COc1ccc(C(C(=O)NCc2ccc(F)cc2)N(C(=O)c2csnn2)C2CC2)cc1 (stereo not drawn)	0.5%	nt	2.0%	-0.2%
C/C(=C\c1ccccc1)CN1CCN(Cc2ccc(C)o2)C(CCO)C1 (stereo not drawn)	3.3%	0.2	1.1%	0.3%
NC(=O)c1ncn([C@@H]2O[C@H](CNC(=O)[C@@H](N)Cc3cccnc3)[C@@H](O)[C@H]2O)n1	-0.4%	nt	nt	0.6%
Cc1cc(=O)oc(C)c1C(=O)N1CCCCC1	2.6%	12.4	-2.3%	1.7%
(continued)
SMILES	Rango dissoc inh	GLA inh pH 4.5	miR-21 reporter	Rango complex inh
COc1ccc(NS(=O)(=O)Cc2ccccc2)cc1OC	2.2%	-1.0	-0.3%	0.6%
CC(C)(C)OC(=O)N/N=C\c1ccc([N+](=O)[O-])s1	14.5%	-5.2	6.5%	-2.4%
Cc1ccc(C(=O)O/N=C/c2c(C(F)(F)F)nn(C)c2Sc2ccc(Cl)cc2)cc1	3.6%	1.7	-2.4%	-0.3%
Cc1nc2ccccn2c1C(=O)c1ccccc1	10.6%	2.9	-17.5%	5.8%
CCCCCc1nnc(NC(=O)C(=O)OCC)s1	5.6%	1.8	-4.5%	-0.2%
O=C(NCc1ccccn1)c1nc(-c2cccs2)no1	-7.6%	-0.1	-26.1%	-3.0%
COc1cc(OC)c([N+](=O)[O-])cc1/C=N/NC(=O)c1ccncc1	7.8%	8.6	11.6%	-2.2%
COc1cc(CN2CCN(Cc3ccc(C)cc3)C(CCO)C2)ccc1O (stereo not drawn)	6.2%	4.0	1.1%	0.6%
COc1cccc(C(=O)NC2CC3CCC(C2)N3Cc2ccccc2)c1 (stereo not drawn)	27.7%	nt	2.8%	-1.1%
COc1ccc(N(CC(=O)NCc2ccc(C)cc2)S(=O)(=O)c2c(C)[nH]c(=O)[nH]c2=O)cc1	-9.4%	nt	-0.4%&-1.4%	0.8%
COc1ccccc1/C=C/C=N/N1CCN(c2ccccn2)CC1	-4.6%	-15.4	0.1%	-0.2%
CCCCOC(=O)Nc1nc2ccc(OC)cc2s1	20.3%	1.1	-25.7%	-0.6%
O=C(NCc1ccco1)c1cc(-c2cccnc2)nc2ccccc12	0.6%	-3.3	8.2%	-3.6%
COc1ccc(C(=O)Cn2cnc3ccccc3c2=O)cc1	21.6%	nt	-54.3%	-3.0%
CN1CCN(C(=S)C(=O)Nc2ccc(Br)cc2)CC1	-2.2%	5.3	-12.2%	0.0%
CCCc1nn(C)c(C(=O)Nc2ccc(C(C)(C)C)cc2)c1Cl	0.4%	-11.6	-7.0%	3.7%
Cc1cc(C)c2oc(C(=O)N(Cc3ccc(F)cc3)C3CCS(=O)(=O)C3)cc(=O)c2c1 (stereo not drawn)	0.3%	nt	-7.5%&-15.0%	0.1%
Cc1c(C(N)=O)sc2ncn(CC(=O)OC(C)C)c(=O)c12	-3.5%	-4.8	-5.6%	0.4%
CC(=O)Nc1ccc2c(c1)nc(CCN1CCN(c3ccccn3)CC1)n2C	6.6%	nt	-0.6%	2.1%
O=C(NCCCN1CCCC1=O)c1cc(S(=O)(=O)N2CCOCC2)c(Cl)cc1Cl	-13.5%	nt	nt	1.3%
CC(C)CN(C(=O)c1cccc([N+](=O)[O-])c1)c1c(N)n(CC(C)C)c(=O)[nH]c1=O	-4.6%	nt	7.1%	-0.8%
COc1ccc2nc(NC(=O)Nc3ccccc3OC)sc2c1	-7.5%	nt	-21.0%	-0.9%
C/C(=N\NC(=O)c1ccc(O)cc1)c1ccc(N2CCOCC2)cc1	-27.0%	3.3	-9.8%	-2.8%
NC(=O)C1CCN(C(=O)CN2CCN(c3cccc(C(F)(F)F)c3)CC2)CC1	5.9%	-2.7	-1.1%	-0.9%
Cc1ccc(F)cc1NC(=O)CSc1nc(Nc2ccccc2)nc(N2CCOCC2)n1	1.4%	nt	0.9%	-4.5%
The results go on.
SMILES	Rango dissoc inh	GLA inh pH 4.5	miR-21 reporter	Rango complex inh
CCc1cc2c3c(c(=O)oc2cc1OC)CCCC3	-8.1%	-4.5	-8.9%	0.2%
Cc1ccc(C2=CC(c3ccc(C)cc3)n3ncnc3N2)cc1 (stereo not drawn)	?	nt	nt	?
COP(=O)(c1ccc(N(C)C)cc1)C(O)c1ccccc1 (stereo not drawn)	-12.7%	nt	-1.2%	-0.5%
Cc1ccc(Oc2ccc(Oc3ccc(C)cc3)nn2)cc1	-11.5%	1.0	-3.4%	-4.4%
N#CCSc1nc(N)c(C#N)c(C2CCCCC2)c1C#N	-11.1%	-3.8	-30.3%	0.5%
CCOC(=O)c1c(C)[nH]c(C(=O)COC(=O)c2oc3ccccc3c2C)c1C	0.0%	-1.1	-2.0%	-2.3%
CC(C)NCCCCOc1cccc(Br)c1	-0.8%	0.6	-16.3%	-0.6%
CCOC(=O)c1c(C)oc2c1c(C(c1cccnc1)N1CCN(C)CC1)c(O)c1ccccc12 (stereo not drawn)	nt	-6.7	-57.5%	nt
Cc1sc(N/N=C/C=C/c2ccccc2)nc1-c1ccccc1	-3.9%	-18.5	0.0%	?
CC(C)n1ncc(N2CCOCC2)c(Cl)c1=O	-10.8%	nt	-20.2%	0.2%
O=C(CN1C(=O)NC2(CCCc3ccccc32)C1=O)Nc1ccccc1OC(F)F (stereo not drawn)	-0.3%	nt	nt	5.9%
CC(C)NC(=O)/C(C#N)=C/c1ccc2c(c1)OCCO2	-25.4%	-2.7	-32.1%	-0.5%
CCCn1c(C(C)Nc2nc(-c3cccc(Br)c3)cs2)nc2ccccc21 (stereo not drawn)	6.4%	nt	4.9%	-1.2%
Cc1cc2c(cc(C(=O)OCC(=O)NCc3ccco3)n2C)s1	-4.8%	1.5	5.5%	0.1%
Cc1ccnc(NC(=O)CNC(=O)c2cccs2)c1	-5.3%	nt	nt	-4.1%
Cc1nc2nc(COc3ccccc3)[nH]n2c(=O)c1C	7.3%	-2.9	0.1%	1.5%
COc1ccc(C)cc1NC(=O)C(OC(=O)c1cnc(C)cn1)c1ccccc1 (stereo not drawn)	6.9%	nt	nt	2.3%
COc1cc(C(=O)NC(c2ccccc2)c2ccccc2)cc(Cl)c1OC	-17.7%	0.0	-3.7%	-1.8%
COc1ccccc1-n1c(SCC(=O)N2CCOCC2)nc2ccccc2c1=O	-3.0%	nt	0.0%	2.5%
Cc1ccc(Sc2ncccc2/C=N/O)cc1	-0.3%	5.7	-36.6%	-0.4%
CCOCCCNC(=O)C1CCN(C(=O)N(C)C)CC1	-3.8%	1.9	2.1%	5.3%
Cc1nnc(SCC(=O)NC2CCCCC2C)s1 (stereo not drawn)	19.4%	-2.4	-2.5%	2.4%
Cc1[nH]n(-c2cccc3ccccc23)c(=O)c1C=Nc1ccc2[nH]c(=O)[nH]c2c1	-11.2%	1.9	-5.3%	0.7%
CCOC(=O)C1=C(O)/C(=C\c2ccc(O)c(OCC)c2)N=C1C	-15.3%	-13.3	-0.9%	?
COc1ccc(CC(=O)Oc2ccc(C)cc2C)cc1	11.0%	nt	-4.6%	0.2%

Next section (six carried over from the part before).
SMILES	Rango dissoc inh	GLA inh pH 4.5	miR-21 reporter	Rango complex inh
Cc1ccc(Sc2ncccc2/C=N/O)cc1	-0.3%	5.7	-36.6%	-0.4%
CCOCCCNC(=O)C1CCN(C(=O)N(C)C)CC1	-3.8%	1.9	2.1%	5.3%
Cc1nnc(SCC(=O)NC2CCCCC2C)s1 (stereo not drawn)	19.4%	-2.4	-2.5%	2.4%
Cc1[nH]n(-c2cccc3ccccc23)c(=O)c1C=Nc1ccc2[nH]c(=O)[nH]c2c1	-11.2%	1.9	-5.3%	0.7%
CCOC(=O)C1=C(O)/C(=C\c2ccc(O)c(OCC)c2)N=C1C	-15.3%	-13.3	-0.9%	?
COc1ccc(CC(=O)Oc2ccc(C)cc2C)cc1	11.0%	nt	-4.6%	0.2%
Cc1[nH][nH]c(=O)c1N=Nc1ccc(S(N)(=O)=O)cc1	22.0%	nt	nt	5.7%
Clc1ccc(COn2c(-c3ccccc3)nc3ccccc32)cc1	25.2%	-12.8	11.5%	-4.5%
C[C@]12CCC3C(CC[C@H]4CC(O)CC[C@]34C)C1CC/C2=N/NC(=O)c1ccncc1 (stereo partly drawn)	23.5%	nt	1.4%	-4.8%
Cc1ccc(NC(=O)NCc2cccnc2)cc1	3.8%	nt	-24.1%	-0.7%
Cc1cc(OCC(=O)NCCc2ccc(Cl)cc2)c2c(C)cc(=O)oc2c1	1.6%	nt	-0.2%	-1.2%
Cc1ccc2nc(C)c(Cl)c(=O)n2c1	0.8%	-2.6	-1.1%	1.5%
Cc1ccc(S(=O)(=O)N(Cc2cccnc2)Cc2cc3ccccc3[nH]c2=O)cc1	-3.5%	nt	5.2%	0.4%
O=C(/C=C/c1ccc([N+](=O)[O-])cc1)Nc1cccnc1	-2.2%	-2.2	-37.4%	-1.1%
Cc1ccc(N(CC(O)CN2C(=O)NC(C)(C)C2=O)S(=O)(=O)c2ccc([N+](=O)[O-])cc2)cc1 (stereo not drawn)	-0.9%	nt	-3.5%	1.4%
CC(C)CC(=O)NC(=S)Nc1cc(C(=O)O)ccc1Cl	-4.8%	-3.3	-2.9%	-3.7%
